Source: PubChem BioAssay (several laboratories)
rRNA inh HTS = inhibits bacterial ribosomal RNA function over humanized ribosomes; GFP signal change (wild-type ribosome), % (no concentration beside the values); E. coli WT GFP vs humanized-ribosome RFP mutants, fluorescence, 24 h; active compounds read low; DMSO median 0, no signal -100; AID 720706; hit rate 1.6% among 350,000;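 active = significant combined selectivity score with lowered wild-type GFP, culture density cut under 30%, mutant RFP and density less affected; inactive = any of these conditions unmet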; note: one replicate is shown; some compounds called inactive have numbers as strong as hits
Ecoli growth = E. coli growth inhibition | hit rate 0.21% among 330,000 | AID 1053175 | OD600 absorbance (test concentration not listed) | Escherichia coli growth, OD600, 23 h; active compounds read low;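 active = OD600 absorbance below the run mean of sample wells minus 3.6 SD, in any replicate, cut at about 0.56 in these data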;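 note: stock transfer was 300 nL into about 60 µL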
ALR inh = inhibitors of human sulfhydryl oxidase ALR | P55789 | purified ALR, DTT oxidation, H2O2 HRP-luminol luminescence | inhibition, % (test concentration not listed) | hit rate 3.8% among 290,000 | AID 485317;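 active = mean and each replicate at 75% or more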;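 note: stock transfer was 7.5 nL into about 7.5 µL; 0% = neutral wells and 100% = wells with inactivated enzyme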
Target sequence (P55789 whole entry, looked up): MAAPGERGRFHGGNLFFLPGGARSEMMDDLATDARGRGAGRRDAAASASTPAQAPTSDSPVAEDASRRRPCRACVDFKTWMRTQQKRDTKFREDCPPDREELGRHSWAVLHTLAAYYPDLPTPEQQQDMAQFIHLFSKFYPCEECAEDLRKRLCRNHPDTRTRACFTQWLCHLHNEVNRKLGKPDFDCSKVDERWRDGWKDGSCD
HNF4A DNA FP = change in binding of human HNF4 alpha to DNA | HNF4a-FITC DNA binding, fluorescence polarization, 1 h | activity change, % at 10 µM | hit rate 0.3% among 360,000 | AID 1224865; in the data active = activity change above about 30%, passing the limit was not always enough;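 note: controls were the assay level and a saturating level of protein; the project sought stronger binding though the title names inhibitors; some compounds called inactive have numbers as strong as hits; positive values seem to mean higher polarization but the record does not say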
B2AR ag = agonists of human beta-2 adrenergic receptor inducing internalization; Am2.2-beta2AR cells, FAP receptor internalization, flow cytometry; reference of the scale not given here; response, % (test concentration not listed); hit rate 0.43% among 340,000; AID 504454; P07550;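 active = response above a set limit, near 3 SD of response in nonfluorescent compounds, cut at about 42% in these data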;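 note: stock transfer was 100 nL into about 11 µL; a reference agonist was the positive control; negative values mostly stem from fluorescent compounds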
Target sequence (P07550 whole entry, looked up): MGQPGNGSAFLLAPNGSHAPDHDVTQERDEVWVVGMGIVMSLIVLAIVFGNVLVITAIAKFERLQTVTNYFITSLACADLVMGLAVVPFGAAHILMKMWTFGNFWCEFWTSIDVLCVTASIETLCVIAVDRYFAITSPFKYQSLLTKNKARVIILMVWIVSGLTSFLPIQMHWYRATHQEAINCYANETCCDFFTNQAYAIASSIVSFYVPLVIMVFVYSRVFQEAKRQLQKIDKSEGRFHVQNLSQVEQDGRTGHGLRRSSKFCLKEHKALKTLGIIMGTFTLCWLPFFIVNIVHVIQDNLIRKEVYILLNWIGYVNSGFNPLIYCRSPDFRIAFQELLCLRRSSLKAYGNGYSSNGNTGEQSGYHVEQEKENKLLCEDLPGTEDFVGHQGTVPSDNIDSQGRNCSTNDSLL
UCH37 DUB inh = human UCH37 deubiquitinating enzyme inhibition | hit rate 0.33% among 330,000 | inhibition, % (concentration not given with the values) | purified proteasome/UCH37, Ub-AMC cleavage fluorescence | Q9Y5K5;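 active = mean of two replicates above 20%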;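 note: 0% = compound-free wells with enzyme and 100% = wells lacking proteasome; stock transfer was 100 nL into about 20 µL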
Target sequence (Q9Y5K5 whole entry, looked up): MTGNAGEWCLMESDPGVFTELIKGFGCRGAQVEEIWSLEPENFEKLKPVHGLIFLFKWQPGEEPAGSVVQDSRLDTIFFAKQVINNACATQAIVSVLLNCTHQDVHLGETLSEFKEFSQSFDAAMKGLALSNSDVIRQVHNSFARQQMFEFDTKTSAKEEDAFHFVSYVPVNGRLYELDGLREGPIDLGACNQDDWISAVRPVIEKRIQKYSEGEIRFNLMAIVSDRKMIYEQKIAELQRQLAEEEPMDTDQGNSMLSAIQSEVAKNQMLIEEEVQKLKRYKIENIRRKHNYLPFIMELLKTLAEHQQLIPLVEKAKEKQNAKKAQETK
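System: Proteasome-associated human UCH37 deubiquitinase; Input: 0.15 nM proteasome in added enzyme buffer; Also added: Ub-AMC substrate from 1 µM stock; Incubation: 30 min compound-proteasome preincubation then 25 min substrate reaction, room temperature; Detection: fluorescence, ex 355 nm, em 460 nm; Read-out: % inhibition of Ub-AMC cleavage fluorescence; Benchmarks: no-proteasome and no-compound wells.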
FGF22 binding = shifts melting point of recombinant human FGF22 | recombinant FGF22 thermal shift, SYPRO orange fluorescence; percent of sucrose octasulfate shift, DMSO zero | calls only at 9.99 µM | hit rate 1.5% among 340,000;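 active = melting point raised past a set limit in the mean and every replicate; three in four hits are not shown here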
rRNA inh HTS OD600 = second read-out of rRNA inh HTS, no call of its own (marks repeat the call); OD600 change, %; measured here: OD600 growth;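 optical density of the mix in the first replicate; 0 = DMSO median and -100 = no signal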
rRNA inh HTS RFP = further read-out of rRNA inh HTS, marked with its call; RFP signal change, %; measured here: RFP humanized mutant strains;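 first replicate; 0 = DMSO median and -100 = no signal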
* marks the source's active call; other numbers are inactive results; i = inactive; x = no result given; & = joins results of further samples. A portion of the library. The share of hits here may be higher or lower than overall.

The first 2 entries as a preview:
SMILES	rRNA inh HTS	rRNA inh HTS OD600	rRNA inh HTS RFP	Ecoli growth	ALR inh	HNF4A DNA FP	B2AR ag	UCH37 DUB inh	FGF22 binding
CC(=O)Nc1ccccc1C(=O)N1CCN(Cc2ccc3c(c2)OCO3)CC1	6	6	-1.1	0.65	0	1.3	1	0.4	i
CC1OC23CCCCC2C(C#N)(C(=N)O3)C1(C#N)C#N (configuration not stated)	x	x	x	0.74	x	2.7	0	-2.6	x

This part in full, from the start:
SMILES	rRNA inh HTS	rRNA inh HTS OD600	rRNA inh HTS RFP	Ecoli growth	ALR inh	HNF4A DNA FP	B2AR ag	UCH37 DUB inh	FGF22 binding
CC(=O)Nc1ccccc1C(=O)N1CCN(Cc2ccc3c(c2)OCO3)CC1	6	6	-1.1	0.65	0	1.3	1	0.4	i
CC1OC23CCCCC2C(C#N)(C(=N)O3)C1(C#N)C#N (configuration not stated)	x	x	x	0.74	x	2.7	0	-2.6	x
CCOc1cc(C2NC(=O)NC(c3ccccc3)=C2C(C)=O)ccc1OCC(N)=O (configuration not stated)	x	x	x	0.7	-8	-1.2	9	5.7	x
CCOC(=O)C1CCCN(c2c(Nc3cc(C)cc(C)c3)c(=O)c2=O)C1 (configuration not stated)	12	8	-0.1	0.72	x	2.5	3	8.3	i
COCCNC(=O)CNC(=S)N(Cc1ccccc1)Cc1cccnc1	x	x	x	0.71	-2	-0.1	2	3.1	x
CC(OC(=O)CCCC(=O)Nc1ccccc1)C(=O)c1ccccc1 (configuration not stated)	-3	-9	0.0	0.69	-8	-4.5	9	0.7	i
Cc1ccc(C)c(N2CCN(C(=S)Nc3ccc4nc(N5CCOCC5)cc(C)c4c3)CC2)c1	x	x	x	0.76	0	2.0	1	-6.7	x
Cc1ccc(S(=O)(=O)N2CCN(c3ccc([N+](=O)[O-])c(Sc4nncn4C)c3)CC2)cc1	x	x	x	0.7	29	0.6	-1	8.9	x
Cc1c(CCC(=O)NCCCn2ccnc2)c(=O)oc2cc3oc4c(c3cc12)CCCC4	x	x	x	0.73	-17	11	20	-28	i
CC(C)c1nnc(NC(=O)c2ccc3c(c2)OCO3)s1	20	15	2.8	0.67	-11	-0.8	2	5.0	i
O=C(NCCNC(=O)c1cccs1)c1ccco1	x	x	x	0.65	-4	-0.5	-6	3.3	x
CCOC(=O)[C@]12CCC=C1N(Cc1ccc(Cl)cc1Cl)C(=O)[C@H](CC(=O)NCCCOC)C2	-16	-14	9.3	x	x	-0.9	x	x	i
CCOCCOCCC(C(=O)O)P(=O)(c1ccccc1)c1ccccc1 (configuration not stated)	x	x	x	0.71	-15	4.1	-1	5.4	x
CN(C)S(=O)(=O)c1cccc(-c2nnc(SCc3cc(Cl)cc4c3OCOC4)n2N)c1	x	x	x	0.72	-7	2.6	6	1.0	x
C/C(=N/NC(=O)c1ccc(C(C)(C)C)cc1)c1ccccn1	-28	-38	13	x	-6	0.4	17	x	x
N#CCCC1CCCC=C1N(Cc1ccccc1)C(=O)C(Cl)Cl (configuration not stated)	15	8	1.4	0.66	-4	1.4	6	0.4	i
CC(=O)Nc1nnc(SCC(=O)c2ccc3c(c2)Cc2ccccc2-3)s1	x	x	x	0.69	-4	2.1	1	2.7	x
O=C(O)c1c[nH]c(=O)c2ccccc12	0	-1	-0.9	0.69	-16	-3.9	-11	-7.9	i
Cc1cccc2cc(CN(Cc3nnnn3C3CCCCC3)C3CCCC3)c3nnnn3c12	x	x	x	0.76	-4	-1.1	-6	2.5	x
CC1CCN(C(=O)Cn2ncc3c4ccccc4n(C)c3c2=O)CC1	4	5	-5.5	0.69	1	2.3	-9	-6.4	i
COc1ccc(C(CNC(=O)c2cccc(S(=O)(=O)N3CCCCC3)c2)N2CCCC2)cc1 (configuration not stated)	5	8	-1.8	0.62	-6	0.8	-5	-0.3	i
C/C(CC(=O)Nc1cccc(C(F)(F)F)c1)=N\NC(=O)c1cnccn1	-11	-5	-0.8	x	x	1.2	-2	x	i
COc1cccc(NC(=O)CN(C)C(=O)CCNC(=O)c2ccccc2Cl)c1	16	12	0.2	0.66	-4	-2.0	1	-2.7	i
CN(C(=O)c1cccc(NC(=O)Cc2cccc(NC(=O)C3CCCN(C(=O)CCc4ccccc4)C3)c2)c1)C1CCC1 (configuration not stated)	-5	1	1.3	0.72	x	2.0	11	3.1	i
C=C1CCC2[C@](C)(CO)[C@H](O)CC[C@@]2(C)[C@@H]1/C=C/C1=CCOC1=O (some centres not stated)	x	x	x	0.74	-5	0.1	2	1.5	i
CCCCN1C(=O)CC(N2CCOCC2)C1=O (configuration not stated)	x	x	x	0.72	-2	2.2	14	5.3	x
CCOC(=O)N1CCN(C(=O)c2csc3c2CCCCC3)CC1	x	x	x	0.61	-8	3.5	5	2.1	x
NC(c1ccc(F)c(F)c1)c1nc(-c2ccc3ccccc3c2)cs1 (configuration not stated)	-33	-43	-3.8	x	x	-6.6	x	x	i
S=c1ccc2ccccc2[nH]1	21	19	4.5	0.64	3	-3.1	-2	12	i
O=C(NCCOc1ccccc1)c1ccccc1F	1	12	1.0	x	x	3.5	x	x	i
CCCCN1CC[C@H]2C=CC[C@@H](C(=O)Nc3ccc(Cl)c(C(F)(F)F)c3)[C@H]2C1=O	17	13	2.6	x	-3	6.3	4	1.2	i
C/C(=N/Nc1ncc(Br)cn1)c1ccc([N+](=O)[O-])cc1	-2	5	-2.0	x	x	3.3	-21	x	i
O=C(Nc1ccccc1F)NC1CCCCCCC1	-21	-30	-7.2	0.71	8	2.8	-6	2.1	i
Cc1ccc(-c2onc3ccc(Cl)cc23)cc1	x	x	x	0.64	-9	0.5	0	0.1	x
CCN(CC(=O)Nc1cc(Cl)ccc1OC)CC(=O)NC1CCS(=O)(=O)C1 (configuration not stated)	11	2	-3.9	0.68	x	2.0	-7	1.2	i
O=C(Nc1cccc(F)c1)Nc1ccnn1C1CCN(C(=O)c2ccccn2)CC1	2	9	-1.2	0.7	-5	3.6	10	-1.5	i

Single entries from the entries so far:
HNF4A DNA FP with `Cc1ccc(S(=O)(=O)N2CCN(c3ccc([N+](=O)[O-])c(Sc4nncn4C)c3)CC2)cc1` is entered as 0.6
HNF4A DNA FP with `CC1OC23CCCCC2C(C#N)(C(=N)O3)C1(C#N)C#N` (configuration not stated) is entered as 2.7

Remaining list, next part.
SMILES	rRNA inh HTS	rRNA inh HTS OD600	rRNA inh HTS RFP	Ecoli growth	ALR inh	HNF4A DNA FP	B2AR ag	UCH37 DUB inh	FGF22 binding
Oc1ccc(CNc2ccccc2)c2cccnc12	x	x	x	0.69	-5	5.3	4	-0.2	x
c1ccc(CN2CCN(CCCNc3ccc4nnc(-c5ccccc5)n4n3)CC2)cc1	x	x	x	0.69	10	-2.1	19	4.1	x
CN(C(=O)CN1C(=O)NC(C)(c2cccc(Br)c2)C1=O)C1CCCCC1 (configuration not stated)	-50	-41	-3.6	0.71	1	0.5	-3	0.3	i
Cc1cc(C(C)(C)C)oc1C(=O)N1CCN(C(=O)c2oc(C(C)(C)C)cc2C)CC1	x	x	x	0.65	x	1.3	-10	1.5	x
CC1(C(=O)NCc2ccc(Cl)cc2)CCN1C(=O)Cc1cccc2ccccc12 (configuration not stated)	-27	-40	0.4	x	x	2.1	x	x	i
Oc1ccccc1-c1cc(-c2ccco2)[nH]n1	x	x	x	0.64	72	4.4	-2	4.1	x
COc1ccc2c(c1)CCC/C2=N\NC(=O)c1ccoc1C	5	14	-1.4	x	47	-2.0	2	x	i
OCCC1CN(Cc2nc3c(s2)CCCC3)CCN1Cc1ccccc1 (configuration not stated)	-3	-4	-1.4	0.72	0	5.9	-3	-2.8	i
COc1ccccc1OCC(=O)Nc1ccc(S(=O)(=O)Nc2cc(C)on2)cc1	3	1	-2.7	0.69	89*	-1.1	6	5.8	i
Cc1oc(-c2ccc(F)cc2)nc1CN1CCCC(C(=O)N2CCOCC2)C1 (configuration not stated)	16	22	-1.0	0.64	x	3.2	-5	-0.1	i
N#Cc1cccc(C#N)c1NCC1CCCO1 (configuration not stated)	2	3	-1.1	0.67	3	-5.0	6	-410	i
Cc1cc(C)nc(N/N=C/c2ccccc2)n1	16	5	2.3	x	0	-1.0	2	x	i
CC(NC(=O)CCCn1cc([N+](=O)[O-])cn1)c1ccccc1 (configuration not stated)	9	0	-1.2	0.7	-9	-0.9	-7	1.8	i
Cc1ccccc1OCC(O)Cn1c2ccccc2c2ccccc21 (configuration not stated)	-3	6	7.4	0.68	-7	1.6	3	-5.5	i
COCCNC(=S)N1CCN(c2cccc(C)c2C)CC1	-12	-10	0.1	0.71	6	2.9	-2	5.8	i
O=C(N/C=N/OCc1cccc(C(F)(F)F)c1)N1OC[C@@H]2COc3ccc4ccccc4c3[C@@H]21	x	x	x	x	-13	-1.1	5	x	x
COc1ccc(N2CCN(C(CNC(=O)c3ccco3)c3ccco3)CC2)cc1 (configuration not stated)	-1	-8	-1.3	0.64	91*	-0.1	-13	1.6	i
O=C(NCCN1CCN(Cc2ccc([N+](=O)[O-])cc2)CC1)C(=O)Nc1ccccc1	12	14	-0.3	0.7	-6	2.1	-13	5.2	i
O=C(/C=C/c1ccc(F)cc1)Nc1cc(S(=O)(=O)N2CCOCC2)ccc1N1CCOCC1	6	16	0.0	x	x	0.3	x	x	i
CCOC(=O)COc1ccc(/C=C2/C(=O)NN(c3ccc(F)cc3)C2=O)cc1OC	7	7	-0.2	0.69	65	-0.4	36	2.7	i
CC[C@@H](C)[C@H](NC(=O)Cc1c(C)c2c(cc(C)c3c(C)c(C)oc32)oc1=O)C(=O)O	-11	-29	-0.5	0.69	74	-3.7	-1	-157	i
Cc1ccc(N2C(=O)CC(Sc3ncccc3C(=O)O)C2=O)cc1 (configuration not stated)	5	1	1.6	0.69	x	6.0	-3	4.5	i
O=C(CN1C(=O)c2ccc([N+](=O)[O-])cc2C1=O)Nc1nccs1	1	0	0.9	0.7	x	1.4	-4	3.9	i
CCOCCCn1c(=N)c(C(=O)NCCN2CCOCC2)cc2c(=O)n3cccc(C)c3nc21	x	x	x	0.74	-18	-0.6	-8	i	x
COC1(OC)N=C(N)C2(C#N)C(c3ccc4c(c3)OCO4)C12C#N (configuration not stated)	x	x	x	0.72	39	3.9	3	2.7	x
CC(C)NC(=O)c1ccc(COc2cc(Cl)ccc2Cl)o1	-33	-29	-11	0.67	x	3.8	-9	2.0	i
OC(COc1ccc(-c2ccccc2)cc1)CN1CCCCC1 (configuration not stated)	3	-3	-1.0	x	x	-1.0	x	x	i
Cc1cccc(CN(C)C[C@H]2OCc3cnnn3CCCC(=O)N([C@@H](C)CO)C[C@@H]2C)c1	6&0	4&1	0.3&-1.6	x	x	-1.1	x	x	i
COc1ccc(/C=N/NC(=S)Nc2ccccc2[N+](=O)[O-])cc1O	-25	-23	-11	x	6	1.7	-9	x	i
Nc1ccc(C(=O)C(=O)c2ccccc2)cc1	2	4	-3.7	0.67	-3	-1.5	-1	10	i
O=C(CN1CCc2ccccc2C1)Nc1cccc(S(=O)(=O)N2CCOCC2)c1	-1	-4	2.3	0.61	x	-0.3	3	2.3	i
CC(C)N(C(=O)N1CCC(c2nc(-c3ccncc3)no2)CC1)C(C)C	x	x	x	0.73	2	-2.1	10	1.9	x
Cn1c(N)c(C(=O)COC(=O)CNC(=O)c2ccccc2Cl)c(=O)n(C)c1=O	x	x	x	0.7	-3	-1.9	-7	0.1	i
